Compound activity: PubChem, Broad Institute
A1 inh = A1 inhibition; caspase activation, % (concentration not given with the values); AID 2241; MEF A1-2A-BIM cells, caspase-Glo luminescence, 3 h; percent of clofoctol signal, DMSO as zero; 0.51% of 21,000 active;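 active means most replicate scores above 10, or exactly half above 10 with mean activity above 10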;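 further: effector caspase 3 and 7 activity cleaving a DEVD luciferin substrate; 50 nL library stock added to about 30 µL; numbers are from one replicate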
BJeLR viab HTS = lowers viability of BJeLR cells; 0.64% of 30,000 active; AID 2275; viability loss activity score, % (concentration not given with the values); BJeLR fibroblasts viability, CellTiterGlo ATP luminescence, 48 h; HRASV12, hTERT and SV40 LT/ST transformed; in the data active means viability loss activity score above about 50%; about a fifth of its hits are not listed in these tables;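 further: higher score means fewer live cells and less ATP luminescence; stock transfer was 50 or 100 nL into about 30 µL; 0% = vehicle wells and 100% = a reference killing control; one replicate is shown; the record names a cut of 85%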
* = called active by the depositor; · = no result given. The list is partial; the hit share may differ from the screen's.

SMILES	A1 inh	BJeLR viab HTS
Cc1noc(C)c1NC(=O)N(C)C[C@H]1Oc2ccc(NC(=O)CCCCCC(=O)Nc3ccccc3N)cc2C(=O)N([C@@H](C)CO)C[C@H]1C	·	0.1
COc1ccc(C2Sc3nncn3N2Cc2ccc(C#N)cc2)cc1 (centres undefined)	0.3	3.0
O=C(Nc1ccc(OCc2ccccc2)cc1)NC1CCCc2ccccc21 (centres undefined)	1.2	4.8
CCn1c(C(=O)N2CCCC(C(=O)NC(C)c3ccc4c(c3)OCCO4)C2)cc2sccc21 (centres undefined)	-0.4	2.6
COc1cc(OC)c2c(=O)c(OC)c(-c3ccccc3)oc2c1	1.2	-10.7
Cc1cc(C)n2nc(SCC(=O)NCc3ccc(Cl)cc3)nc2n1	0.8	-3.8
C[C@H]1CN([C@@H](C)CO)C(=O)c2cccc(NC(=O)NC3CCCCC3)c2O[C@H]1CN(C)S(=O)(=O)c1ccccc1	·	-5.6
O=C(NCCSc1ccccc1)C1CCCN1S(=O)(=O)c1ccc2ccccc2c1 (centres undefined)	·	2.3
CC(C)C1=NNC(=O)C1(C)C	0.8	-2.6
C[C@@H]1CN([C@@H](C)CO)C(=O)c2cccc(NC(=O)C3CCOCC3)c2O[C@H]1CN(C)S(=O)(=O)c1cccs1	·	5.5
CCc1ccc(CNC(=O)c2coc(=O)c3ccccc23)cc1	·	-0.2
C[C@@H]1CN([C@@H](C)CO)C(=O)c2cccc(NC(=O)Nc3ccc(C(F)(F)F)cc3)c2O[C@@H]1CN(C)S(=O)(=O)c1ccccc1	·	1.3
Cc1noc(C)c1NC(=O)N(C)C[C@@H]1Oc2c(NC(=O)c3ccncc3)cccc2C(=O)N([C@H](C)CO)C[C@@H]1C	·	-1.1
Cc1cc(N2C(=O)CCC2=O)no1	-1.0	-1.3
CC(C)NC(=O)Nc1ccc2c(c1)C(=O)N([C@@H](C)CO)C[C@@H](C)[C@@H](CN(C)Cc1ccc(Cl)c(Cl)c1)O2	0.7	-0.1
COCC(=O)OCn1nnc2ccccc2c1=O	·	-9.4
Cc1noc(C)c1S(=O)(=O)Nc1cccc2c1O[C@H](CN(C)Cc1ccncc1)[C@H](C)CN([C@@H](C)CO)C2=O	·	-5.3
COc1ccccc1OCCSc1nnnn1C1CCCCC1	-1.1	1.6
C[C@H](CO)N1C[C@H](C)[C@@H](CN(C)S(=O)(=O)c2cn(C)cn2)Oc2c(NS(C)(=O)=O)cccc2C1=O	·	-5.0
Cc1ccc(S(=O)(=O)N(C)C[C@H]2Oc3c(NC(=O)Nc4cccc5ccccc45)cccc3C(=O)N([C@@H](C)CO)C[C@@H]2C)cc1	·	-1.1
Cc1cccc(CN2C(=O)c3ccccc3Sc3ccc(C(=O)NC(C)C)cc32)c1	0.8	-4.5
Cc1noc(C)c1S(=O)(=O)Nc1ccc2c(c1)C(=O)N([C@@H](C)CO)C[C@@H](C)[C@H](CN(C)CC1CC1)O2	-0.5	0.7
O=C(O)/C(=C/c1ccc2c(c1)OCO2)NC(=O)c1ccccc1Br	0.7	0.0
C[C@H]1CN([C@@H](C)CO)C(=O)c2cc(NC(=O)CCN3CCOCC3)ccc2O[C@@H]1CN(C)S(C)(=O)=O	0.7	-0.2
COc1ccc(OCCSc2nc3ccccc3n2C)cc1	-2.5	-6.0

(listing goes on)
SMILES	A1 inh	BJeLR viab HTS
C[C@H]1CN([C@@H](C)CO)C(=O)c2cc(NS(=O)(=O)c3ccccc3)ccc2O[C@H]1CN(C)S(=O)(=O)c1cccs1	-0.6	5.9
NC1=NC(=O)CC(C(=O)Nc2cccc3ccccc23)S1 (centres undefined)	0.6	-3.3
Cc1cc(C(=O)Nc2cccc3c2O[C@H](CN(C)S(C)(=O)=O)[C@H](C)CN([C@H](C)CO)C3=O)n(C)n1	·	-2.2
Cc1ccc(S(=O)(=O)N(C)C[C@H]2Oc3c(NC(=O)Nc4ccc(C(F)(F)F)cc4)cccc3C(=O)N([C@@H](C)CO)C[C@H]2C)cc1	·	-3.3
O=C(O)c1ccc(S(=O)(=O)N2CCCC3CCCCC32)cc1 (centres undefined)	1.3	1.4
Cc1ccc(S(=O)(=O)Nc2cccc3c2O[C@H](CN(C)Cc2ccc(Cl)c(Cl)c2)[C@@H](C)CN([C@@H](C)CO)C3=O)cc1	·	-3.4
COc1ccc(NC(=O)Nc2ccc3c(c2)C(=O)N([C@H](C)CO)C[C@@H](C)[C@H](CN(C)Cc2ccc(Oc4ccccc4)cc2)O3)cc1	0.2	-2.5
Cc1ccc(N(CC(O)Cn2c3ccccc3c3ccccc32)S(=O)(=O)c2ccccc2)cc1 (centres undefined)	0.4	3.9
O=C1C(c2ccccc2)CCCC1c1ccccc1 (centres undefined)	0.3	3.3
C[C@@H]1CN([C@@H](C)CO)C(=O)c2cc(NC(=O)c3ccncc3)ccc2O[C@H]1CN(C)Cc1ccncc1	0.1	-2.2
Cc1noc(C)c1NC(=O)N(C)C[C@H]1Oc2c(NS(=O)(=O)c3cn(C)cn3)cccc2C(=O)N([C@@H](C)CO)C[C@H]1C	·	7.2
C[C@@H]1CN([C@@H](C)CO)C(=O)c2cc(NS(C)(=O)=O)ccc2O[C@@H]1CN(C)C(=O)NC1CCCCC1	-0.4	-1.7
O=S(=O)(c1cccc2c(Cl)cccc12)N1CCCNCC1	0.9	-2.1
C[C@H]1CN([C@@H](C)CO)C(=O)c2cc(N(C)C)ccc2O[C@@H]1CN(C)S(=O)(=O)c1ccccc1	1.1	0.3
Cc1cc(C(=O)Nc2cccc3c2O[C@H](CN(C)S(=O)(=O)c2ccc(Cl)cc2)[C@H](C)CN([C@@H](C)CO)C3=O)n(C)n1	·	-3.7
O=C(CCCn1c(SCC(=O)c2ccc(F)cc2)nc2ccccc2c1=O)NCc1ccccc1	-0.9	0.0
CNC[C@@H]1Oc2c(NS(=O)(=O)c3ccc(OC)cc3)cccc2C(=O)N([C@H](C)CO)C[C@H]1C	·	-4.3
O=C(CCSc1nc(-c2ccco2)cc(C(F)(F)F)n1)N1CCCCC1	·	-3.0
CCOC(=O)C1=C(C)N(C)C(=O)N(C)C1c1ccccc1 (centres undefined)	0.9	0.0
CSc1nc(N)n2nc(-c3ccccc3)cc2n1	-6.5	15.8
COc1ccccc1N(CC(=O)Nc1ccccc1)S(C)(=O)=O	0.1	1.0
CNC(=O)Nc1cccc(-c2ccnc(C)n2)c1	0.5	4.2
O=C(/C=C/c1ccc2c(c1)OCO2)/C=C/c1ccc2c(c1)OCO2	·	-0.7
CC1CCC(NS(=O)(=O)c2ccc3c(c2)oc(=O)n3C)CC1 (centres undefined)	·	2.5
C[C@H]1CN([C@@H](C)CO)C(=O)c2cc(NC(=O)Nc3ccc4c(c3)OCO4)ccc2O[C@H]1CN(C)C(=O)Nc1ccc(F)cc1	0.7	-0.3

Other structures follow.
SMILES	A1 inh	BJeLR viab HTS
C[C@@H]1CN([C@H](C)CO)C(=O)c2cc(NC(=O)CCN3CCOCC3)ccc2O[C@@H]1CN(C)CC1CCCCC1	0.2	3.9
C[C@@H]1CN([C@H](C)CO)C(=O)c2cc(NS(=O)(=O)c3ccccc3)ccc2O[C@@H]1CN(C)Cc1ccc(Cl)c(Cl)c1	0.5	-3.1
COc1ccc(S(=O)(=O)Nc2ccc3c(c2)C(=O)N([C@@H](C)CO)C[C@H](C)[C@@H](CN(C)S(=O)(=O)c2cccs2)O3)cc1	-0.1	-6.5
COc1ccc(S(=O)(=O)Nc2cccc3c2O[C@H](CN(C)Cc2ccc(-c4ccccc4)cc2)[C@@H](C)CN([C@@H](C)CO)C3=O)cc1	·	1.4
CC1CCCC(NC(=O)c2ccc3c(SCC(=O)O)c4c(nc3c2)CCC4)C1C (centres undefined)	1.0	-7.7
CCOc1ccc(-n2cc(-c3ccccc3)c3c(NC(C)C)ncnc32)cc1	-1.4	-4.3
COc1ccc(/C=C/C(=O)c2c(OC)cc(OC)c(CC=C(C)C)c2OC)cc1	-0.3	0.1
CCOC(=O)C(C)Sc1nc(-c2ccc(OC)cc2)nc2c1c(=O)n(C)c(=O)n2C (centres undefined)	·	1.9
Cn1c(=O)cc(SCC(=O)Nc2cccnc2)c2ccccc21	·	3.5
Cc1noc(C)c1NC(=O)Nc1cccc2c1O[C@@H](CN(C)Cc1ccc(C(=O)O)cc1)[C@H](C)CN([C@H](C)CO)C2=O	·	0.2
CCCCc1c(O)c2cccc3c4ccccc4n(c1=O)c23	-1.1	8.2
Cc1ccc(Sc2sc(=O)n(C)c2S(=O)(=O)c2ccc(C)cc2)cc1	-1.5	5.6
FC(F)(F)c1cccc(-c2ccc(-c3nn4c(-c5ccco5)nnc4s3)o2)c1	·	2.7
Cc1nnsc1-c1nnc(SCC(=O)N(c2ccccc2)C2CCCCC2)n1C1CC1	-0.2	1.0
CCCCN1C(=O)C2C(C(=O)Nc3ccc(C(C)C)cc3)C3C=CC2(O3)C1C(=O)NC1CCCCC1 (centres undefined)	·	-5.2
C[C@H](CO)N1C[C@H](C)[C@@H](CN(C)S(=O)(=O)c2ccccc2)Oc2c(NS(=O)(=O)c3ccc(Cl)cc3)cccc2C1=O	·	-1.8
Cc1ccc(S(=O)(=O)N(CC(=O)NC2CC2)C2CCCCC2)cc1	0.1	5.8
Cc1c(O)cc2c(c1O)C(=O)CC(c1ccccc1)O2 (centres undefined)	-0.1	-0.2
c1ccc(Oc2nc(Oc3ccccc3)nc(Oc3ccccc3)n2)cc1	-0.5	6.5
C[C@H](CO)N1C[C@H](C)[C@H](CN(C)CC2CCCCC2)Oc2c(NC(=O)Nc3ccc(C(F)(F)F)cc3)cccc2C1=O	·	4.2
COc1ccc(CCC(=O)NCCc2cn3ccccc3n2)cc1	0.0	5.5
Cc1noc(C)c1NC(=O)Nc1cccc2c1O[C@H](CN(C)C(=O)Nc1c(C)noc1C)[C@@H](C)CN([C@H](C)CO)C2=O	·	0.4
COc1ccc(CN(C)C[C@H]2Oc3c(NS(C)(=O)=O)cccc3C(=O)N([C@@H](C)CO)C[C@@H]2C)cc1	·	1.9
C[C@H]1CN([C@@H](C)CO)C(=O)c2cc(NC(=O)CCCN(C)C)ccc2O[C@@H]1CN(C)Cc1ccccc1	0.0	1.1
O=C(Cc1ccccc1)Nc1ccccc1C(F)(F)F	1.8	7.6

Entries of single compounds from above. Order of values: A1 inh | BJeLR viab HTS
Results for Cc1cc(N2C(=O)CCC2=O)no1 : -1.0 | -1.3
Results for C[C@H]1CN([C@@H](C)CO)C(=O)c2cc(NC(=O)CCN3CCOCC3)ccc2O[C@@H]1CN(C)S(C)(=O)=O : 0.7 | -0.2
Results for O=C(O)/C(=C/c1ccc2c(c1)OCO2)NC(=O)c1ccccc1Br : 0.7 | 0.0

Next structures.
SMILES	A1 inh	BJeLR viab HTS
COc1ccc(S(=O)(=O)Nc2ccc3c(c2)C(=O)N([C@H](C)CO)C[C@H](C)[C@@H](CN(C)S(=O)(=O)c2ccc(Cl)cc2)O3)cc1	-0.2	1.6
O=C(NC1CCCCNC1=O)c1cnn(-c2ccccc2)c1C(F)(F)F (centres undefined)	1.8	-8.1
Cc1noc(C)c1NC(=O)N(C)C[C@H]1Oc2c(NC(=O)NC3CCCCC3)cccc2C(=O)N([C@@H](C)CO)C[C@@H]1C	·	2.6
Cc1noc(C)c1NC(=O)N(C)C[C@@H]1Oc2c(NS(=O)(=O)c3ccccc3)cccc2C(=O)N([C@H](C)CO)C[C@@H]1C	·	0.1
CC(C)NC(=O)Nc1ccc2c(c1)C(=O)N([C@H](C)CO)C[C@H](C)[C@H](CN(C)CC1CC1)O2	-0.6	-4.0
COc1ccc(NC(=O)N(C)C[C@H]2Oc3c(NS(C)(=O)=O)cccc3C(=O)N([C@@H](C)CO)C[C@H]2C)cc1	·	-1.8
O=C(CSc1ncccc1C(=O)O)NCCC1=CCCCC1	0.1	-0.5
COc1ccc(S(=O)(=O)N(C)C[C@H]2Oc3ccc(NC(=O)CCCCCC(=O)Nc4ccccc4N)cc3C(=O)N([C@H](C)CO)C[C@@H]2C)cc1	·	3.3
COc1ccc(-c2nc(CNS(=O)(=O)c3ccccc3F)cs2)cc1	0.0	1.5
CC12CC(NC(=S)N1c1ccccc1)c1ccccc1O2 (centres undefined)	1.0	-2.0
C[C@H](CO)N1C[C@H](C)[C@@H](CN(C)CC2CCCCC2)Oc2ccc(NC(=O)CCN3CCOCC3)cc2C1=O	-0.4	2.9
COc1ccc(S(=O)(=O)N(C)C[C@@H]2Oc3c(NC(=O)C4CC4)cccc3C(=O)N([C@@H](C)CO)C[C@@H]2C)cc1	·	1.8
C[C@H](CO)N1C[C@H](C)[C@H](CN(C)S(=O)(=O)c2ccccc2)Oc2c(NS(=O)(=O)c3cccs3)cccc2C1=O	·	-0.7
Cc1noc(C)c1NC(=O)Nc1ccc2c(c1)C(=O)N([C@H](C)CO)C[C@H](C)[C@@H](CN(C)Cc1ccc(C(F)(F)F)cc1)O2	0.3	-2.6
Cc1cccc(N2CCN(CC(O)CN3C(=O)c4ccccc4C3=O)CC2)c1 (centres undefined)	1.0	3.8

Three structures out of the list, ordered by formula weight, ascending.
SMILES	A1 inh	BJeLR viab HTS
O=C(CSc1ncccc1C(=O)O)NCCC1=CCCCC1	0.1	-0.5
COc1ccc(S(=O)(=O)Nc2ccc3c(c2)C(=O)N([C@H](C)CO)C[C@H](C)[C@@H](CN(C)S(=O)(=O)c2ccc(Cl)cc2)O3)cc1	-0.2	1.6
COc1ccc(S(=O)(=O)N(C)C[C@H]2Oc3ccc(NC(=O)CCCCCC(=O)Nc4ccccc4N)cc3C(=O)N([C@H](C)CO)C[C@@H]2C)cc1	·	3.3

3 records drawn at random from those above:
SMILES	A1 inh	BJeLR viab HTS
C[C@H](CO)N1C[C@H](C)[C@H](CN(C)S(=O)(=O)c2ccccc2)Oc2c(NS(=O)(=O)c3cccs3)cccc2C1=O	·	-0.7
CC(C)NC(=O)Nc1ccc2c(c1)C(=O)N([C@H](C)CO)C[C@H](C)[C@H](CN(C)CC1CC1)O2	-0.6	-4.0
Cc1noc(C)c1NC(=O)Nc1ccc2c(c1)C(=O)N([C@H](C)CO)C[C@H](C)[C@@H](CN(C)Cc1ccc(C(F)(F)F)cc1)O2	0.3	-2.6
